NOMO-1 viab: NOMO-1 AML cell viability reduction, primary screen, STK33 inhibitor project, CellTiter-Glo luminescence | NOMO-1 AML viability, 72 h | 37,000 compounds, 7.5% hits | AID 2330, 2010 | inhibition, % (concentration not given with the values);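 active = most replicates above 80%; inconclusive = exactly half above 80%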;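 note: wells of about 30 µL received 25 nL stock; 0% = median of vehicle wells and 100% = reference inhibitor level; the first replicate is given; inactives centre near 10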
Starred values were filed as active, the others as inactive; ? = inconclusive.

SMILES	NOMO-1 viab
COc1ccc(S(=O)(=O)Nc2cccc3c2O[C@@H](CN(C)S(=O)(=O)c2c(C)noc2C)[C@H](C)CN([C@@H](C)CO)C3=O)cc1	-8
CC(C)NC(=O)Nc1ccc2c(c1)C(=O)N([C@H](C)CO)C[C@@H](C)[C@@H](CN(C)Cc1ccncc1)O2	-12
C[C@H]1CN([C@@H](C)CO)C(=O)c2cccc(NC(=O)c3ccc(-c4nccs4)cc3)c2O[C@H]1CN(C)Cc1ccc(-c2ccccc2)cc1	58
C[C@H]1CN([C@@H](C)CO)C(=O)Cc2cc(NC(=O)Nc3ccc4c(c3)OCO4)ccc2O[C@H]1CN(C)S(=O)(=O)c1ccccc1	128*
C[C@@H]1CN([C@H](C)CO)C(=O)Cc2cc(NS(=O)(=O)c3ccc(F)cc3)ccc2O[C@H]1CN(C)Cc1ccc(Cl)c(Cl)c1	102*
O=C(c1cccc(Cl)c1)N1CCOCC1	4
OC[C@@]1(O)CO[C@H](OC[C@H]2O[C@@H](OC(CCCCc3ccc(O)cc3)CCc3ccc(O)cc3)[C@H](O[C@H]3OC[C@](O)(CO)[C@H]3O)[C@@H](O)[C@@H]2O)[C@@H]1O (some centres undefined)	19
COc1cc(O)cc(OC)c1OC	107*
C[C@H](CO)N1C[C@H](C)[C@@H](CN(C)Cc2ccc3c(c2)OCO3)Oc2c(cccc2N(C)C)C1=O	22
C[C@@H]1CN([C@@H](C)CO)C(=O)c2cc(NC(=O)CCCN(C)C)ccc2O[C@H]1CN(C)Cc1ccc(C(=O)O)cc1	-5
COc1ccc(NC(=O)Nc2ccc3c(c2)C(=O)N([C@H](C)CO)C[C@@H](C)[C@H](CN(C)Cc2ccc(Cl)c(Cl)c2)O3)cc1	-13
C[C@@H]1CCCCO[C@@H](CN(C)S(C)(=O)=O)[C@@H](C)CN([C@H](C)CO)C(=O)c2cc(NC(=O)Nc3ccc(F)cc3)ccc2O1	24
COc1ccc2c(c1OC)OC[C@@H](c1ccc(OC)c(OC)c1OC)C2	10
CCc1cccc(C)c1NC(=O)CSc1nnc(-c2ccc(OC)cc2)o1	20
CN(CC(=O)Nc1cccnc1)S(=O)(=O)c1ccc2ccccc2c1	-5

Structural class, those above containing a carbonyl joined to an NH by a bond outside any ring
SMILES	NOMO-1 viab
CC(C)NC(=O)Nc1ccc2c(c1)C(=O)N([C@H](C)CO)C[C@@H](C)[C@@H](CN(C)Cc1ccncc1)O2	-12
C[C@H]1CN([C@@H](C)CO)C(=O)c2cccc(NC(=O)c3ccc(-c4nccs4)cc3)c2O[C@H]1CN(C)Cc1ccc(-c2ccccc2)cc1	58
C[C@H]1CN([C@@H](C)CO)C(=O)Cc2cc(NC(=O)Nc3ccc4c(c3)OCO4)ccc2O[C@H]1CN(C)S(=O)(=O)c1ccccc1	128*
C[C@@H]1CN([C@@H](C)CO)C(=O)c2cc(NC(=O)CCCN(C)C)ccc2O[C@H]1CN(C)Cc1ccc(C(=O)O)cc1	-5
COc1ccc(NC(=O)Nc2ccc3c(c2)C(=O)N([C@H](C)CO)C[C@@H](C)[C@H](CN(C)Cc2ccc(Cl)c(Cl)c2)O3)cc1	-13
C[C@@H]1CCCCO[C@@H](CN(C)S(C)(=O)=O)[C@@H](C)CN([C@H](C)CO)C(=O)c2cc(NC(=O)Nc3ccc(F)cc3)ccc2O1	24
CCc1cccc(C)c1NC(=O)CSc1nnc(-c2ccc(OC)cc2)o1	20
CN(CC(=O)Nc1cccnc1)S(=O)(=O)c1ccc2ccccc2c1	-5

The results go on.
SMILES	NOMO-1 viab
COc1ccc(CC(=O)Nc2cc(C)ccc2O)cc1OC	-4
Cc1noc(C)c1S(=O)(=O)Nc1cccc2c1O[C@H](CN(C)Cc1ccc(C(=O)Nc3ccccc3N)cc1)[C@H](C)CN([C@H](C)CO)C2=O	118*
COc1ccc(CN(C)C[C@H]2Oc3ccc(NC(=O)C4CC4)cc3CC(=O)N([C@@H](C)CO)C[C@H]2C)cc1	21
O=C(NCCOc1ccccc1Cl)c1ncn[nH]1	-7
CCNC(=S)Nc1ccc(NC(=O)c2ccccc2O)cc1	13
C[C@@H]1CN([C@@H](C)CO)C(=O)c2cc(NC(=O)Nc3ccccc3)ccc2O[C@@H]1CN(C)Cc1ccc(C(=O)Nc2ccccc2N)cc1	111*
c1cnc(N2CC[N+]3(CCCC3)CC2)nc1	10
C[C@H]1CN([C@@H](C)CO)C(=O)Cc2cc(NS(=O)(=O)c3cccs3)ccc2O[C@@H]1CN(C)Cc1ccc(C(=O)O)cc1	-10
COc1cc(-c2nnc(SCC(=O)c3cccc([N+](=O)[O-])c3)n2-c2ccccc2)cc(OC)c1OC	57
COc1ccc(NC(=O)Nc2cccc3c2O[C@H](CN(C)Cc2ccc(Cl)c(Cl)c2)[C@H](C)CN([C@@H](C)CO)C3=O)cc1	?
C[C@@H]1CN([C@H](C)CO)C(=O)Cc2cc(NC(=O)Nc3ccccc3)ccc2O[C@@H]1CN(C)S(=O)(=O)c1ccccc1	31
COc1ccc(NC(=O)N(C)C[C@H]2Oc3c(NC(=O)NC4CCCCC4)cccc3C(=O)N([C@H](C)CO)C[C@@H]2C)cc1	13
C[C@H]1CN([C@@H](C)CO)C(=O)c2cccc(NC(=O)Nc3ccc(C(F)(F)F)cc3)c2O[C@H]1CN(C)Cc1ccc(Oc2ccccc2)cc1	75
CCn1cc(CN(C)C(=S)Nc2cccc(C(C)=O)c2)c(C)n1	-5
C[C@@H]1CN([C@@H](C)CO)C(=O)c2cccc(NC(=O)c3ccncc3)c2O[C@@H]1CN(C)C(=O)Nc1ccc(F)cc1	11
Cc1ccc(S(=O)(=O)N(C)C[C@H]2Oc3ccc(NC(=O)CCCN(C)C)cc3C(=O)N([C@@H](C)CO)C[C@@H]2C)cc1	10
O=C(O)CCc1nn2c3ccccc3n(CC(=O)c3cccs3)c2nc1=O	21
CS(=O)(=O)N(CC(=O)Nc1cc(Cl)ccc1Oc1ccccc1)c1cc(Cl)ccc1Cl	70
C[C@@H]1CCCCO[C@H](CN(C)S(=O)(=O)c2ccccc2)[C@@H](C)CN([C@H](C)CO)C(=O)c2cc(NC(=O)NC3CCCCC3)ccc2O1	17
COc1ccc(NC(=O)N(C)C[C@H]2Oc3ccc(NS(=O)(=O)c4cccs4)cc3C(=O)N([C@H](C)CO)C[C@@H]2C)cc1	-6
COC(=O)CSc1ncnc2scc(-c3ccc(Cl)cc3)c12	27
COc1cc(NC(=O)CS(=O)(=O)Cc2ccccc2)c(OC)cc1Cl	6
CCOC(=O)c1c(NC(=O)CN2C(=O)COc3ccc(Cl)cc32)sc2c1CCCC2	41
COc1ccc(NC(=O)N(C)C[C@@H]2Oc3ccc(NC(=O)CCC(F)(F)F)cc3C(=O)N([C@@H](C)CO)C[C@H]2C)cc1	-15
Cc1ccc(C(=O)O)cc1NC(=O)COc1ccc(C(C)(C)C)cc1	10
O=C(O)c1ccc(C(F)(F)F)cc1C(F)(F)F	-7
C[C@@H]1CN([C@@H](C)CO)C(=O)c2cc(NC(=O)c3ccncc3)ccc2O[C@H]1CN(C)C(=O)Nc1ccccc1	-6
Cc1nc(CSc2ncnc3sc4c(c23)CCCCC4)cs1	3
CS(=O)(=O)N(CC(=O)Nc1cc(Cl)cc(Cl)c1)c1cccc(Cl)c1	2
CC1(COc2ccc(CC3SC(=O)NC3=O)cc2)CCCCC1 (centres undefined)	23
COc1ccc(CN(C)C[C@@H]2Oc3ccc(NC(=O)Nc4ccc(F)cc4)cc3CC(=O)N([C@@H](C)CO)C[C@@H]2C)cc1	29
Cc1c(C(=O)N2CCN(C)CC2)oc2c1C(=O)CC(C)(C)C2	26
C[C@@H]1CN([C@@H](C)CO)C(=O)Cc2cc(NC(=O)NC3CCCCC3)ccc2O[C@@H]1CN(C)S(=O)(=O)c1ccccc1	4
C[C@@H]1CN([C@H](C)CO)C(=O)c2cccc(NC(=O)c3ccncc3)c2O[C@H]1CN(C)C(=O)Nc1ccc(C(F)(F)F)cc1	-4
C[C@@H]1CCCCO[C@@H](CN(C)S(=O)(=O)c2cn(C)cn2)[C@@H](C)CN([C@H](C)CO)C(=O)c2cc(NS(C)(=O)=O)ccc2O1	3
Cc1ccc2nc(-c3ccccn3)cc(C(=O)Nc3ccc(S(=O)(=O)N4CCOCC4)cc3)c2c1	43
Cc1ccc(C(=O)c2oc3ccccc3c2NC(=O)c2cc3ccccc3oc2=O)cc1F	112*
C[C@@H]1CN([C@H](C)CO)C(=O)Cc2cc(NC(=O)Cn3cnnn3)ccc2O[C@H]1CN(C)S(=O)(=O)c1cn(C)cn1	6
CCOC(=O)CNC(=O)c1cc(C)on1	0
C[C@@H]1CN([C@H](C)CO)C(=O)c2cccc(NC(=O)c3ccc(-c4nccs4)cc3)c2O[C@@H]1CN(C)Cc1ccccc1	28
C[C@H]1CN([C@@H](C)CO)C(=O)c2cc(NC(=O)Cn3cnnn3)ccc2O[C@H]1CN(C)C	18
Cc1ccc(S(=O)(=O)Nc2ccc3c(c2)CC(=O)N([C@@H](C)CO)C[C@H](C)[C@@H](CN(C)C(=O)Nc2ccc(C(F)(F)F)cc2)O3)cc1	-2
COc1cc2c(cc1NC(=O)CN(C)S(=O)(=O)c1ccc(Cl)cc1)oc1ccccc12	38
C[C@@H]1CN([C@H](C)CO)C(=O)c2cccc(NC(=O)c3ccncc3)c2O[C@H]1CN(C)S(=O)(=O)c1ccc(Cl)cc1	16
CCN(CC(=O)Nc1ccc(F)c(Cl)c1)S(=O)(=O)c1ccc(C)cc1	15
COc1ccc(C2CC(=O)c3cnc(NCCN4CCOCC4)nc3C2)cc1 (centres undefined)	0
Cc1ccc(S(=O)(=O)N(CC(=O)Nc2ccccc2C)C2CCCCC2)cc1	24
C[C@@H]1CN([C@@H](C)CO)C(=O)c2cccc(NS(=O)(=O)c3cccs3)c2O[C@H]1CN(C)S(=O)(=O)c1ccc(Cl)cc1	-7
C[C@@H]1CN([C@@H](C)CO)C(=O)c2cc(NC(=O)CCCCCC(=O)Nc3ccccc3N)ccc2O[C@H]1CN(C)Cc1ccncc1	12
Cc1noc(C)c1S(=O)(=O)Nc1ccc2c(c1)CC(=O)N([C@@H](C)CO)C[C@H](C)[C@H](CN(C)C)O2	-10
Cc1cccc(-c2nnc(SCC(=O)Nc3c(C)cc(I)cc3C)o2)c1	37
COc1ccc(NC(=O)Nc2ccc3c(c2)CC(=O)N([C@@H](C)CO)C[C@H](C)[C@@H](CN(C)S(=O)(=O)c2ccc(F)cc2)O3)cc1	-9
C[C@@H]1CN([C@H](C)CO)C(=O)Cc2cc(NS(=O)(=O)c3cn(C)cn3)ccc2O[C@@H]1CN(C)S(=O)(=O)c1ccc(Cl)cc1	3
CNC[C@@H]1Oc2c(NC(=O)C3CCOCC3)cccc2C(=O)N([C@@H](C)CO)C[C@@H]1C	18
CC(C)(C)Nc1nc(SCC(N)=O)nc(N2CCOCC2)n1	-23
C[C@@H]1CCCCO[C@@H](CN(C)Cc2ccccc2)[C@@H](C)CN([C@H](C)CO)C(=O)c2cc(NC(=O)NC3CCCCC3)ccc2O1	11
C[C@@H]1CN([C@@H](C)CO)C(=O)c2cc(NC(=O)Cc3ccccc3)ccc2O[C@@H]1CN(C)S(=O)(=O)c1cn(C)cn1	-8
O=C(CSc1nc2c(c(C(F)(F)F)n1)CCc1ccccc1-2)Nc1c(F)cc(F)cc1Br	-8
C[C@@H]1CN([C@H](C)CO)C(=O)c2cccc(NS(=O)(=O)c3ccc(Cl)cc3)c2O[C@H]1CN(C)Cc1ccc(-c2ccccc2)cc1	25
Nc1nnc(SCC(=O)Nc2ccc(Br)cc2Cl)n1-c1ccccc1	14

The results go on.
SMILES	NOMO-1 viab
C[C@H](CO)N1C[C@H](C)[C@H](CN(C)Cc2ccc(-c3ccccc3)cc2)Oc2ccc(NS(=O)(=O)c3ccc(F)cc3)cc2CC1=O	95*
COc1cc(C(C)=O)ccc1OCC(O)Cn1nc(C)c(Br)c1C (centres undefined)	29
C[C@H](CO)N1C[C@H](C)[C@@H](CN(C)C(=O)Nc2ccc(C(F)(F)F)cc2)Oc2c(NC(=O)Nc3cccc4ccccc34)cccc2C1=O	100*
C[C@H](CO)N1C[C@H](C)[C@H](CN(C)C(=O)Nc2ccccc2)Oc2c(NC(=O)Nc3cccc4ccccc34)cccc2C1=O	73
Cc1ccc(S(=O)(=O)c2nc(S(=O)(=O)c3ccc(C)cc3)c(NCc3ccco3)s2)cc1	11
CCOCC(O)CS(=O)(=O)c1ccccn1 (centres undefined)	-4
Cn1nnnc1SCC(=O)Nc1ccc(I)cc1	12
O=C(Nc1ccc(Cl)cc1)Nc1ccccc1C(=O)NCc1ccco1	12
CN(c1ccc(C(=O)NCc2ccccn2)cc1)S(C)(=O)=O	21
COC(=O)c1ccc(C(=O)OC)c(NC(=O)CCc2ccc(C)o2)c1	-10
COc1cc2c(cc1NC(=O)CN(C)S(=O)(=O)c1ccc(Br)cc1)oc1ccccc12	-7
Cc1ccc(S(=O)(=O)Nc2ccc3c(c2)C(=O)N([C@H](C)CO)C[C@H](C)[C@H](CN(C)S(=O)(=O)c2ccc(C)cc2)O3)cc1	20
COc1ccc2c(c1)OCC(Cc1ccc(OC)c(OC(C)=O)c1)C2=O (centres undefined)	108*
C[C@@H]1CN([C@@H](C)CO)C(=O)c2cccc(N(C)C)c2O[C@H]1CN(C)S(C)(=O)=O	8
O=C(CSc1ncc(-c2ccccc2)nn1)Nc1ccc(I)cc1	43

Three structures from above, arranged by molar mass, rising.
SMILES	NOMO-1 viab
CN(c1ccc(C(=O)NCc2ccccn2)cc1)S(C)(=O)=O	21
COC(=O)c1ccc(C(=O)OC)c(NC(=O)CCc2ccc(C)o2)c1	-10
C[C@H](CO)N1C[C@H](C)[C@H](CN(C)C(=O)Nc2ccccc2)Oc2c(NC(=O)Nc3cccc4ccccc34)cccc2C1=O	73

Next part.
SMILES	NOMO-1 viab
C[C@H]1CN([C@@H](C)CO)C(=O)c2cc(NC(=O)CCC(F)(F)F)ccc2O[C@H]1CN(C)C(=O)Nc1ccc(F)cc1	14
Cc1cccc(-n2c(SCC(=O)O)nc3sc4c(c3c2=O)CCCC4)c1	-5
Cc1nnc(N2C(=O)C(=O)C(C(=O)c3ccco3)C2c2cccc(Oc3ccccc3)c2)s1 (centres undefined)	-2
CNC[C@@H]1Oc2ccc(NC(=O)Nc3cccc4ccccc34)cc2C(=O)N([C@H](C)CO)C[C@H]1C	-2

This is a subset; rates above refer to the full screens.
